# B2AR ag = human beta-2 adrenergic receptor agonism by FAP | response, % (test concentration not listed) | P07550 | 0.43% of 340,000 active | Am2.2-beta2AR cells, FAP receptor internalization, flow cytometry; reference of the scale not given here;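 active means response above a set limit, near 3 SD of response in nonfluorescent compounds, cut at about 42% in these data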;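 further: stock transfer was 100 nL into about 11 µL; a reference agonist was the positive control; negative values mostly stem from fluorescent compounds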
# Target sequence (P07550 whole entry, looked up): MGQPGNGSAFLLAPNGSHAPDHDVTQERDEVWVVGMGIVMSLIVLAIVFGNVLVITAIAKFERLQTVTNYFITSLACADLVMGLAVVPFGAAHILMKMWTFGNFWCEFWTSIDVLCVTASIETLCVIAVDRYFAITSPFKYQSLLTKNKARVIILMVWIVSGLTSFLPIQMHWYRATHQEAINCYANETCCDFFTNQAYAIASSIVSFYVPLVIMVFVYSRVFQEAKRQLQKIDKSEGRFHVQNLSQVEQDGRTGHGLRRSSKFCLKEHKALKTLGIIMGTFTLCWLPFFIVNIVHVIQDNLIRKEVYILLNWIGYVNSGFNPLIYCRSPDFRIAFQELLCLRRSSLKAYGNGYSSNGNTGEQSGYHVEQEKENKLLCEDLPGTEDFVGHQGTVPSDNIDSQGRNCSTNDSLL
# Vif A3G = inhibitors of Vif binding to APOBEC3G peptide, primary screen, biochemical, TR-FRET, GST-Vif 1-94, biotin-A3G peptide, dose response retest (AID 1117319) | 0.57% of 260,000 active | TR-FRET GST-Vif / biotin-A3G peptide binding; higher % means a stronger effect; test concentration not given here; strong numbers were not always called active | one-dose inhibition, %; IC50 in µM for titrated hits;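 active means above the screen mean plus three standard deviations and confirmed in dose response; inconclusive means results disagree or hit not tested in dose response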;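 further: Vif residues 1-94 fused to GST binding biotinylated APOBEC3G peptide 110-148; 0% = full assay without inhibitor and 100% = GST in place of GST-Vif; retest series ran down from 100 µM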
# LANA-H2B inh = blocks KSHV LANA binding to histone H2A/H2B; Q9QR71; cell-free LANA-H2A/H2B peptide, fluorescence polarization; inhibition, % (no concentration beside the values); 0.6% of 320,000 active; AID 2629; in the data active means inhibition mostly above about 10%, no sharp cut-off; inactive means mostly below about 6.7%;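 further: stock transfer was 7.5 nL into about 10 µL; 0% = median of vehicle wells and 100% = median of positive control wells; one replicate is shown; the record names a cut of 25% in any replicate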
# RanGTP-Imp inh = inhibitors of RanGTP-importin-beta interaction, primary screen, biochemical, FRET, CFP-Ran, YFP-importin-beta, homogeneous | cell-free CFP-Ran/YFP-importin-beta FRET ratio | inhibition, % (no concentration beside the values) | 1.1% of 300,000 active;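 active means most replicates above 15%; inconclusive means exactly half above 15%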;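 further: 0% = DMSO wells and 100% = Ran loaded with GDP instead of GTP; wells of about 40 µL received 100 nL stock; the first replicate is given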
# HNF4A DNA FP = change in binding of human HNF4 alpha to DNA; 0.3% of 360,000 active; AID 1224865; P41235; HNF4a-FITC DNA binding, fluorescence polarization, 1 h; activity change, % at 10 µM; in the data active means activity change above about 30%, passing the limit was not always enough;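 further: controls were the assay level and a saturating level of protein; the project sought stronger binding though the title names inhibitors; some compounds called inactive have numbers as strong as hits; positive values seem to mean higher polarization but the record does not say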
# Target sequence (P41235 whole entry, looked up): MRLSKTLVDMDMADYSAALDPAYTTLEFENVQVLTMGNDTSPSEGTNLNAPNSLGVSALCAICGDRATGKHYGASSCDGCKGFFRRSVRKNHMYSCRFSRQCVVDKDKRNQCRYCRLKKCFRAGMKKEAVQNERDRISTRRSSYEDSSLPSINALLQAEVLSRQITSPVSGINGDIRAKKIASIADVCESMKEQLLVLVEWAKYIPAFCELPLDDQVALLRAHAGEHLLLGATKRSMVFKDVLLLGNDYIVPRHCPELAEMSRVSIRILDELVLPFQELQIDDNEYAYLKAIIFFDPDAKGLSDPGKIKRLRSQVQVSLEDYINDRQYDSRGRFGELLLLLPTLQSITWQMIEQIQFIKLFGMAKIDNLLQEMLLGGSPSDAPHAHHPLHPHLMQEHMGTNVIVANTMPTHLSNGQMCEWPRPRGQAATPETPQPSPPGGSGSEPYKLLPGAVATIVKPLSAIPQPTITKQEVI
# ALR inh = inhibitors of human sulfhydryl oxidase ALR; P55789; purified ALR, DTT oxidation, H2O2 HRP-luminol luminescence; inhibition, % (concentration not given with the values); 3.8% of 290,000 active; AID 485317;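 active means mean and each replicate at 75% or more; inconclusive means only one of the two met; inactive means neither met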;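 further: stock transfer was 7.5 nL into about 7.5 µL; 0% = neutral wells and 100% = wells with inactivated enzyme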
# Target sequence (P55789 whole entry, looked up): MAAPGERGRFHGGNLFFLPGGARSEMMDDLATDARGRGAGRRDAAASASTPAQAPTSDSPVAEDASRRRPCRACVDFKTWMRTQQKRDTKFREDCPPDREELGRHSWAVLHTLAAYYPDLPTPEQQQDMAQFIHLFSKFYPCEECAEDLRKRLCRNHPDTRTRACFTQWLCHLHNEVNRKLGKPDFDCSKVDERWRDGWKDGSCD
# Calb FLC = C. albicans growth modulation with fluconazole. AID 1979. growth inhibition, % (concentration not given with the values). C. albicans CaCi-2 (fluconazole-resistant clinical isolate) + fluconazole, Alamar Blue growth, 48 h. 0.57% of 300,000 active;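 active means most replicates above 75%; inconclusive means exactly half above 75%; inactive means most below 75%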;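 further: all wells also contain fluconazole at 8 µg/ml as a sub-toxic cotreatment; 0% = median of DMSO wells and 100% = median of geldanamycin control wells; wells of about 8 µL received 7.5 nL stock; the first replicate is given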
# Active calls of the source: *; ? = inconclusive; / = not tested or not shown; & = joins results of further samples.
SMILES,B2AR ag,Vif A3G,LANA-H2B inh,RanGTP-Imp inh,HNF4A DNA FP,ALR inh,Calb FLC
Cn1c(SCC(=O)Nc2ccc3nc(SCC(=O)NC4CC4)sc3c2)nnc1-c1ccccc1,-5.2,/,-8.1,2.6,0.3,-13.3,4.2
Cc1c(Cl)cccc1NC(=S)NCCc1ccc(S(N)(=O)=O)cc1,3.6,/,-10.9,1.0,-2.4,-0.7,-8.9
CCNC(=S)NNC(=O)Nc1ccccc1,-1.0,5.2%,-1.1,6.9,-5.0,5.9,2.7
CCCOc1ccc(-c2c(C(=O)N/N=C(\C)COc3ccccc3)nnn2-c2nonc2N)cc1,-4.4,/,-1.7,7.0,1.7,-2.5,-8.2
CC(=O)NN1C(=O)c2ccccc2NC1c1ccccc1F (configuration not stated),14.3,-0.3%,-0.5,1.6,-2.7,-2.4,1.3
Cc1ccc(NC2CCCN(C(=O)c3cccs3)C2)cc1C (configuration not stated),1.4,/,/,0.2,2.2,98.5*,15.8
O=C(NC(C(=O)c1ccccc1)n1ccc(=O)[nH]c1=O)c1ccccc1 (configuration not stated),1.8,-6.4%,0.3,-1.3,-3.0,/,5.0
CO/N=C/c1ccc(N2CCN(C(=O)c3ccc(Cl)cc3Cl)CC2)c([N+](=O)[O-])c1,5.8,?,1.6,2.3,3.5,-18.8,34.0
COc1cc(OC)cc(C(=O)NNC(=O)c2ccc3ccccc3n2)c1,18.9,-3.7%,/,/,1.1,/,/
Cc1ccc(N2CC(C(=O)Nc3ccc4c(c3)OCO4)CC2=O)cc1C (configuration not stated),2.4,-0.9%,2.7,0.5,-2.0,-0.5,0.3
CCN1CCCc2cc(CN(CCN3CCOCC3)C(=S)Nc3ccc(OC)c(Cl)c3)ccc21,3.4,-16.7%,-6.7,5.6,1.0,98.6*,2.2
CN(C(=O)COC(=O)Cc1ccc(Cl)cc1)C1CCCCC1,-9.5,3.3%,-2.2,/,-0.7,0.2,/
O=C(NCc1ccc2c(c1)OCO2)C(=O)Nc1cc2c3c(c1)CC(=O)N3CCC2,0.7,8.4%,1.6,7.7,0.9,-6.9,5.0
CC1(C)Cc2cccc(Oc3ccc(S(=O)(=O)N4CCCCC4)cn3)c2O1,1.7,29.4%,-2.2,?,3.7,-3.3,5.4
COC(=O)C1=C(C)N(C)C(=S)NC1c1cc(OC)ccc1OC (configuration not stated),-5.3,-7.0%,-6.5,-0.7,4.8,-4.2,5.9
CCCCc1c(C)nc(Nc2ccc(OC)cc2)[nH]c1=O,-0.6,-3.3%,3.5,-2.9,1.1,-11.7,-7.0
COc1ccc2c(c1)C1CC(C)(NC(=O)C1C(=O)c1ccccc1)O2 (configuration not stated),6.7,63.3%,-2.4,0.6,-5.3,-6.3,-9.1
Cc1ccc(NC(=O)C2CCN(S(=O)(=O)c3ccc4c(c3)NC(=O)C(C)S4)CC2)c(Cl)c1 (configuration not stated),-1.9,/,-0.3,1.1,22.3,-13.0,21.0
Cc1onc(-c2c(F)cccc2Cl)c1C(=O)Nc1nccs1,2.5,-2.4%,6.1,-4.9,-1.7,2.8,6.1
O=C(CN1CCCCC1)N/N=C/c1ccc(Cl)cc1Cl,-10.3,/,-2.6,-3.1,0.0,-3.7,3.9
O=C(NCc1ccc2c(c1)OCO2)c1cc(=O)[nH]c2ccccc12,-9.7,20.1%,1.3,-0.4,0.3,-4.3,0.8
CC(C)CN(C(=O)COC(=O)CCSc1ccc(F)cc1)c1c(N)n(Cc2ccccc2)c(=O)[nH]c1=O,-1.9,1.6%,/,0.8,4.0,/,-13.0
CC1=NN(C(N)=S)C(=O)C1N=Nc1ccc(Cl)cc1 (configuration not stated),-6.2,/,2.5,-0.5,3.2,-15.8,-4.3
Cn1c(N/N=C/c2c[nH]c3ccccc23)nc2ccccc21,8.7,3.8%,-4.6,5.2,-3.5,98.1*,83.6*
CCOc1ccc(OC(=O)c2cccc(S(=O)(=O)N3CCN(C)CC3)c2)cc1,-2.0,-5.6%,4.3,4.7,-4.5,18.5,22.8
CCc1ccc(NC(=O)CCC(=O)N2CCSc3ccccc32)cc1,-10.9,/,10.7,-0.7,3.2,-6.3,-14.7
CCC1Oc2ccc(C)cc2N(CC(=O)NCc2ccccc2OC)C1=O (configuration not stated),7.8,-4.1%,6.9,-0.2,-3.9,/,-8.5
c1ccc(Nc2nc3ccccc3n3nnnc23)cc1,-195.9,2.4%,4.5,35.6*,-17.5,-15.8,5.9
CCCN(CCC)C(=S)Nc1cc(C(=O)OC)ccc1C(=O)OC,6.3,-8.1%,-0.8,41.0*,-0.1,-1.4,0.3
CCOC(=O)C1CCN(C(=O)c2ccc(N3CCOCC3)c([N+](=O)[O-])c2)CC1,6.5,3.4%,20.8*,/,1.5,-4.9,/
CN(Cc1ccc(Cl)cc1Cl)C(=O)CNC(=O)c1ccco1,-6.5,-3.3%,1.8,-2.1,-1.0,-3.3,-3.9
Cn1c(Sc2nc3ccccc3n2C)nc2ccccc21,-18.6,1.2%,2.6,-1.1,0.0,10.0,-8.0
O=C(N/N=C/c1ccncc1)c1ccc2c(c1)OCO2,3.4,-14.4%,-4.7,0.4,-0.9,-6.6,-19.5
Cn1cc(/C=C/C(=O)N2CCCC(C(=O)c3ccc(C(F)(F)F)cc3)C2)cn1 (configuration not stated),-7.5,5.9%,0.0,1.5,-0.7,-2.3,9.0
COc1ccccc1-c1c(C)nn2c(N3CCN(c4ccccc4OC)CC3)cc(C)nc12,10.4,4.8%,3.7,1.7,1.1,/,-1.6
CC(=O)Nc1ccc(NC(=O)Cn2c(-c3ccc(F)cc3)cnc2SCC(=O)Nc2c(C)cccc2C)cc1,4.5,3.1%,-3.1,/,-1.4,4.2,-10.2
Cc1ccc(NC(=O)COC(=O)c2csc3c2CCC(C)C3)cc1S(=O)(=O)N1CCCCC1 (configuration not stated),12.3,?,-3.8,-1.9,1.5,-8.0,2.2
CC1CCC2(CC1)NC(=O)N(NC(=O)c1cccs1)C2=O (configuration not stated),1.8,0.4%,3.5,/,-4.1,-6.9,/
CC(=O)N1c2ccccc2C(C)=CC1(C)C,0.8,-0.9%,-1.1,-3.4,-1.5,-0.8,13.6
CC1CCCC(C)N1C(=O)Cn1nnc(-c2ccccc2)n1 (configuration not stated),-6.2,0.4%,1.1,2.1,-2.6,-2.9,-6.5
CCn1c2ccccc2c2nnc(SCC(=O)NC3CCS(=O)(=O)C3)nc21 (configuration not stated),-3.0,/,-0.2,-0.7,-1.8,-0.2,4.4
CCn1c(SCc2ccc(C#N)cc2)nnc1-c1cccc(Cl)c1,-11.2,-2.9%,3.1,-0.3,-1.8,0.2,-3.5
COC(=O)CSc1nnc(CNc2ccc(Cl)cc2)n1-c1ccccc1,17.7,?,-1.0,-1.7,-0.1,/,11.8
C=CCC[C@@H](Cc1ccc(F)cc1)C(=O)OC[C@@H](Cc1c[nH]c2ccccc12)NC(=O)[C@H](CC=C)CC(=O)N[C@H](CO)Cc1ccccc1,0.3,/,-3.6,/,-2.6,0.0,/
CCn1c(-c2nn(-c3ccccc3)ccc2=O)n[nH]c1=S,-8.8,32.3%,1.0,-3.0,1.9,18.9,-2.1
COc1cc(NS(=O)(=O)c2cc(C(=O)N3CCN(C(C)=O)CC3)ccc2OC)cc(OC)c1,-5.9,/,0.3,?,-4.2,-5.2,4.1
CCC(C)(C)NC(=O)CN(C(=O)CCC(=O)Nc1nccs1)c1ccc2c(c1)OCO2,1.6,/,-1.3,6.2,-3.9,-2.2,-2.5
CC(=O)NCCN=C(C)c1sc2ccccc2c1O,-6.0,22.6%,-4.3,54.1*,-2.6,10.5,1.1
Cc1cccc(-c2nnc(N)s2)c1,-4.6,-4.5%,-2.4,0.3,0.6,-3.8,-12.2
CCN(CC)c1ccc(NC(=O)COc2ccc(-n3cnnn3)cc2)cc1,2.4,-3.6%,0.3,/,0.9,98.8*,/
COc1ccccc1NC(=O)c1ccc(S(=O)(=O)N(C)C)cc1,7.0,6.1%,2.7,-3.8,3.3,-6.4,-8.0
CC1CCCN(CCCNC(=O)c2cc3c(s2)-c2ccccc2OC3)C1 (configuration not stated),8.8,/,-4.2,4.9,0.9,-8.5,7.7
COc1ccc(C(=O)/C(C#N)=N/Nc2ccccc2[N+](=O)[O-])cc1,-2.4,-5.5%,-1.1,1.7,2.1,-1.8,0.2
COc1ccc(-n2nc3c(c2NC(=O)COc2cccc(OC)c2)CS(=O)(=O)C3)cc1,1.7,/,-0.5,1.0,-1.5,-24.1,7.1
Cc1cccc(-c2noc(C3CCCCC3)n2)c1,-4.3,2.4%,-4.5,-1.0,0.0,-3.7,-1.2
COc1ccc(C)cc1NC(=O)CCN1CCN(c2ccccc2)CC1,-6.6,/,3.8,4.0,-0.2,95.4*,4.3
Cc1csc2nc(CNC(=O)C3CCCCC3)cn12,-3.4,-0.5%,4.4,1.4,-3.1,0.1,-2.4
c1csc(C2CCCN2c2nc3nonc3nc2NC2CC2)n1 (configuration not stated),-2.6,-6.6%,2.7,10.4,-3.0,-14.6,11.6
COc1ccc(OC)c(NC(=O)c2ccc(N3C(=O)C4CC=C(C)CC4C3=O)cc2)c1 (configuration not stated),17.8,-0.5%,1.7,3.4,1.3,/,-23.5
O=C(OCCN1CCOCC1)c1ccc(OCCN2CCOCC2)cc1,-11.1,2.9%,-3.6,4.8,-3.2,3.1,-1.9
# Following part:
SMILES,B2AR ag,Vif A3G,LANA-H2B inh,RanGTP-Imp inh,HNF4A DNA FP,ALR inh,Calb FLC
Cc1ccc(-c2cc(C(=O)N/N=C\c3cnn(C)c3C)c3ccccc3n2)cc1C,-8.7,-4.3%,-2.5,2.4,1.4,5.5,-0.1
O=C(Nc1c2c(nn1-c1ccc(F)cc1)CSC2)c1ccc(S(=O)(=O)N2CCOCC2)cc1,4.6,2.1%&-0.3%,-9.8,-2.6,5.7,-3.0,10.8
Cc1cccnc1NC(=O)Cn1nc(C)c([N+](=O)[O-])c1C,8.8,8.5%,1.4,-1.4,1.3,-14.9,-4.0
O=C1c2oc3ccc(F)cc3c(=O)c2C(c2ccccc2)N1CC1CCCO1 (configuration not stated),-16.7,2.1%,-0.9,5.3,1.6,6.7,3.1
CC(=O)/C(C#N)=C1\NC(=O)C(Cc2ccc(C)c(Cl)c2)S1 (configuration not stated),14.5,-4.3%,-0.5,3.3,1.4,?,5.9
Cc1cc(N2CCN(C(c3ccccc3)c3ccccc3)CC2)n2ncnc2n1,8.8,1.0%,-3.3,1.4,1.0,-30.9,9.0
N#C/C(=C\c1ccc(N2CCOCC2)o1)C(=O)Nc1ccc(O)cc1,-28.9,18.2%,-50.5,?,217.5,99.0*,38.6
Cc1cccc(C)c1NC(=O)c1cccc(C(=O)Nc2c(C)cccc2C)n1,0.6,/,0.8,3.6,-1.6,-3.9,-0.2
CCOC(=O)c1c(C)[nH]c(C)c1C(=O)COC(=O)CSc1ccc(C)cc1,3.7,/,2.0,/,8.4,1.1,/
CCCCOC(=O)C1=C(C)NC2=C(C(=O)CCC2)C1c1cc(OC)ccc1OC (configuration not stated),-19.1,-1.7%,-2.0,-1.5,-6.8,/,40.8
CC1CCCCC1NC(=O)c1ccc2c(c1)[nH]c(=O)n2C1CCCC1 (configuration not stated),4.3,-2.6%,-1.2,-3.8,-0.1,3.4,7.4
CCOC(=O)C1=C(C)NC(C)=C(C(=O)OC)C1c1ccco1 (configuration not stated),-2.1,/,3.7,-1.1,0.6,0.0,-5.7
NC(=O)CSc1nc2sc3c(c2c2ncnn12)CCCC3,-6.9,-4.9%,-1.7,2.5,1.6,-11.8,16.4
O=C(Cc1cccs1)Nc1ccon1,-0.1,5.5%,3.6,0.2,1.5,-12.2,-0.5

# Screening data from PubChem.
